VDR inh: blocks the human vitamin D receptor; VDR-SRC2-3 peptide fluorescence polarization, 2 h; AID 504847; P11473; Potency, µM, for the others: max response, negative = inhibition, hits mostly inhibitors; actives 0.93% (n = 400,000); active means well fitted inhibition curve with a large enough effect; inconclusive means small, poorly fitted or top-dose-only effect, or another doubt; inactive means no such curve, though single readings can be large or run the other way; further: series mostly up to about 120 µM
Target sequence (P11473 whole entry, looked up): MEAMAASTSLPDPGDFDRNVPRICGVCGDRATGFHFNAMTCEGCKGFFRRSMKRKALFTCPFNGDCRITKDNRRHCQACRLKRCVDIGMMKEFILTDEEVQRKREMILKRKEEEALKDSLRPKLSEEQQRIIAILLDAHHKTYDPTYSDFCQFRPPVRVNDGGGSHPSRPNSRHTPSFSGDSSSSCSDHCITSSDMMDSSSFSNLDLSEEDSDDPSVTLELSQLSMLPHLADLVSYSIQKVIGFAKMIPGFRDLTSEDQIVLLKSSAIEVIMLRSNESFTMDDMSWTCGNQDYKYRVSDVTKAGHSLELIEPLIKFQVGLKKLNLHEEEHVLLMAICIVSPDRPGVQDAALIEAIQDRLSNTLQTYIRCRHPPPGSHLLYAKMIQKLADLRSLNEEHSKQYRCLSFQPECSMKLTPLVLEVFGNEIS
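Reagent solutions, kept cold and dark, are dispensed first; compounds are then pinned in at 23 nl, plates briefly spun, and incubated 2 h at ambient temperature. Inhibition of VDR–SRC2-3 peptide binding is read by fluorescence polarization.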
Active calls of the source: *; ? = inconclusive; [ ] = another dose, or the depositor's remark. On the % scale 0 is the no-effect control and ±100 the full control effect; potency means the concentration at half of the fitted maximal effect.

VDR inh | molecule
? | O=C1NC(Cc2ccc(O)cc2)c2nc3ccc(F)cc3c(=O)n2-c2cc(Cl)ccc21 (configuration not stated)
0.5% | Cn1c(C(=O)NCCN2CCc3ccccc3C2)cc2c(=O)n(C)c3ccccc3c21
-24.5% | CCCN1CCC(=O)N([C@H](COc2ccccc2)CC(C)C)CC1
0.6% | C/C(=N/NC(=O)CCc1ccccc1)c1ccc2c(c1)OCO2
22.2% | CCCCOc1cccc(C2(C(=O)O)CCCC2)c1
-3.1% | O=C(Nc1ccccc1C(=O)N1CCCC1)c1ncoc1-c1cccc(Cl)c1
16.6% | Cc1ccc(CNC(=O)Cn2c(=O)c3sccc3n(Cc3ccc([N+](=O)[O-])cc3)c2=O)cc1
-6.6% | Cc1nnc(N2CCOCC2)c2nn(-c3ccccc3)c(C)c12
5.7% | Cc1ccccc1-c1nc(CN2CCCC2c2ccc(F)cc2)c(C)o1 (configuration not stated)
-4.7% | CCOC(=O)c1cccc(NC(=O)C(CC(C)C)N2Cc3ccccc3C2=O)c1 (configuration not stated)
2.6% | COc1cccc(COC(=O)CCNC(=O)c2ccc(Br)cc2)c1OC
-10.4% | COCCNC(=S)N=Nc1c(O)[nH]c2c(C)cc(C)cc12
-11.9% | Cc1ccc(CN2[C@@H](c3ccccc3)COCCS2(=O)=O)cc1
4.5% | COC(=O)C(Cc1ccc(O)cc1)NC(=O)CCNC(=O)c1ccco1 (configuration not stated)
-1.8% | O=C(Nc1ccc2c(c1)OCCO2)NC12CC3CC(CC(C3)C1)C2
-4.4% | COCC(=O)n1nc(-c2ccc(Cl)cc2)nc1NCc1ccc(F)cc1
0.7% | CCN1C(=O)/C(=C/N2CC(C)CC(C)C2)SC1=S (configuration not stated)
-19.6% | COC(=O)c1ccc(CNC(=O)COC(=O)CCN2C(=O)C3CC=CCC3C2=O)cc1 (configuration not stated)
5.0% | Cc1c2cnn(CC(=O)O)c(=O)c2c(C)n1Cc1cccc(Cl)c1
-29.2% | Brc1ccc(CNc2ccc3ncccc3c2)cc1
17.3% | COc1ccc(S(=O)(=O)N2CCOCC2)cc1C(=O)Nc1ccon1
4.8% | CCOC(=O)N1CCC(c2nc(C)sc2C(=O)O)CC1
14.3% | O=C(Nc1cccc(S(=O)(=O)N2CCOCC2)c1)C1CCN(S(=O)(=O)c2ccccc2)CC1
9.1% | CN(C)CCCN(Cc1ccccc1)C(=S)Nc1ccc(F)c(Cl)c1
? | O=C(Nc1nc2ccsc2c(=O)s1)c1ccc(Cl)cc1

Next part (6 carried over from the part before).
VDR inh | molecule
-29.2% | Brc1ccc(CNc2ccc3ncccc3c2)cc1
17.3% | COc1ccc(S(=O)(=O)N2CCOCC2)cc1C(=O)Nc1ccon1
4.8% | CCOC(=O)N1CCC(c2nc(C)sc2C(=O)O)CC1
14.3% | O=C(Nc1cccc(S(=O)(=O)N2CCOCC2)c1)C1CCN(S(=O)(=O)c2ccccc2)CC1
9.1% | CN(C)CCCN(Cc1ccccc1)C(=S)Nc1ccc(F)c(Cl)c1
? | O=C(Nc1nc2ccsc2c(=O)s1)c1ccc(Cl)cc1
0.0% | COc1ccc(NC(=O)C2C3C=CC4(O3)C2C(=O)N(CCN2CCCCC2)C4C(=O)NC2CCCCC2)cc1 (configuration not stated)
5.3% | CC1CC(C)CN(C(=O)C2CCCN(c3ncnc4c3nc3n4CCCCC3)C2)C1 (configuration not stated)
0.0% | CCOC(=O)CCCCCC(=O)Nc1ccc2c(c1)CC(=O)N([C@@H](C)CO)C[C@H](C)[C@@H](CN(C)C(=O)Nc1ccc3c(c1)OCO3)O2
-6.4% | CC1CCCC(C)N1C(=O)Nc1cccc(Cl)c1 (configuration not stated)
-21.7% | CCOC(=O)c1c(NC(=O)c2cccc([N+](=O)[O-])c2C(=O)O)sc2c1CCCC2
-0.5% | O=C(COC(=O)c1c[nH]c2ccccc12)Nc1ccc([N+](=O)[O-])cc1
0.2% | Cc1ccc(-c2nnc(SCC(=O)N3CCCc4ccccc43)n2N)cc1
-3.5% | O=C(COC(=O)c1ccc(F)cc1)NCCc1ccc(F)cc1
5.3% | Cc1ccc(S(=O)(=O)N(C)C)cc1NC(=O)CN1C(=O)NC(Cc2c[nH]c3ccccc23)C1=O (configuration not stated)
6.1% | COc1ccc(Cl)cc1N(C(=O)c1ccco1)C(C(=O)NC1CCCC1)c1ccncc1 (configuration not stated)
? | Cc1nc(N)sc1-c1csc(Nc2cccc(O)c2)n1
10.2% | Cc1cccc(C(=O)C2CCN(S(=O)(=O)c3ccc(C(=O)O)cc3)CC2)c1
-16.5% | O=C(NCc1ccccc1CN1CCCC1)c1ccc(OCc2cscn2)cc1
-5.5% | Cc1ccc(C(c2nnnn2CC2CCCO2)N2CCN(C)CC2)cc1 (configuration not stated)
-14.2% | COc1ccc(S(=O)(=O)N(C)C)cc1NCC(=O)Nc1ccc(Br)cc1F
-14.3% | CCOc1ccc(NC(=O)c2cccnc2Cl)c([N+](=O)[O-])c1
-0.9% | CC(C)=CCN1CCN(Cc2cccn2-c2nccs2)CC1CCO (configuration not stated)
-6.1% | COCC(C)NC(=S)NC(=O)c1cc(S(=O)(=O)N2CCOCC2)ccc1C (configuration not stated)
-9.8% | O=C(NCCN1CCOCC1)c1c(Cl)cccc1Cl
-6.8% | Cn1c(SCC(=O)N2c3ccccc3Sc3ccc(Cl)cc32)nnc1-c1ccco1
-3.4% | CC(NC(=O)c1ccc(N(C)C)c([N+](=O)[O-])c1)c1ccc(-n2ccnc2)cc1 (configuration not stated)
-17.5% | COc1ccc(NS(=O)(=O)c2cccc(C(=O)NN=Cc3ccc(OC)c(O)c3)c2)cc1
-14.8% | c1ccc2c(C3CCO3)cccc2c1 (configuration not stated)
10.8% | CCOC(=O)c1sc(NC(=O)c2sccc2C)cc1C
-5.2% | Cc1[nH]c2ccccc2c1C(=O)CSc1ccc(F)cc1

Part of the list above in order of count of non-hydrogen atoms, largest number first.
VDR inh | molecule
-17.5% | COc1ccc(NS(=O)(=O)c2cccc(C(=O)NN=Cc3ccc(OC)c(O)c3)c2)cc1
-6.8% | Cn1c(SCC(=O)N2c3ccccc3Sc3ccc(Cl)cc32)nnc1-c1ccco1
-21.7% | CCOC(=O)c1c(NC(=O)c2cccc([N+](=O)[O-])c2C(=O)O)sc2c1CCCC2

Next part.
VDR inh | molecule
-23.2% | CC(C)Cc1cc(CN2CCCC(CO)(Cc3cccc(Cl)c3)C2)[nH]n1 (configuration not stated)
3.6% | COC(=O)c1ccccc1NC(=O)COC(=O)/C=C/c1ccco1
-12.2% | CC1CCN(C(=O)c2ccccc2NC(=O)Nc2ccccc2)CC1
-1.8% | COc1cc(OC)cc(C(=O)OCC(=O)NCc2ccco2)c1
-10.2% | Cc1ccc2c(c1)N(Cc1ccc3c(c1)OCO3)C(=O)C(C)O2 (configuration not stated)
-10.6% | CCc1ccccc1NC(=O)C1CCN(C(=O)c2ccc([N+](=O)[O-])cc2)CC1
-0.4% | O=C(/C=C/c1c(F)cccc1Cl)NCc1ccc2c(c1)OCO2
-5.8% | CNc1nc(Sc2cccc(C(F)(F)F)c2)cc(C(F)(F)F)n1
33.1%[activator] | COc1cc2c3nnc(-c4ccc(F)cc4)c-3cn(Cc3cccc(C)c3)c2cc1OC
7.7% | CCOn1c(=O)c(-c2cccc3ccccc23)[n+]([O-])c2ccccc21
-8.3% | Cc1nn(C)c(Oc2ccccc2)c1CCNS(=O)(=O)c1ccc(Cl)cc1
14.9% | CCS(=O)(=O)N1CC(=O)N(c2cc(C)cc(C)c2)C(C)(C(=O)NC2CCCCC2)C1 (configuration not stated)
-5.5% | Cc1cccc(N(C(=O)c2csnn2)C(C(=O)NC(C)(C)C)c2cccnc2)c1 (configuration not stated)
-16.7% | CCc1cccc(NC(=O)CCS(=O)(=O)c2cc3c(cc2C)NC(=O)CO3)c1
10.8% | CCOC(=O)C(=O)N/N=C(/c1ccccc1)c1ccc(OC)cc1
22.8% | C=CCn1c(SCC(=O)NCc2ccco2)nc2sc3c(c2c1=O)CCC3
5.5% | CCOc1ccc(OC(=O)C(CCS(C)(=O)=O)N2C(=O)c3ccccc3C2=O)cc1 (configuration not stated)
4.3% | CCc1cc(Cn2nc(-c3ccccc3)cc2C(=O)NCc2cccs2)on1
-1.1% | Nc1c(C(=O)CSc2ccccn2)c(=O)[nH]c(=O)n1C1CC1
6.5% | C/C(=N\NC(=O)c1ccc(CSc2cccc3cccnc23)cc1)C1CCCCC1
-12.7% | CC(=O)NS(=O)(=O)c1ccc(N2C(=O)c3ccccc3C2=O)cc1
7.2% | Nc1ccc2nc(SCC(=O)N3CCN(c4ccccc4)CC3)sc2c1
7.3% | O=C(NCc1ccc(-c2csnn2)cc1)c1cc(Cl)cc(Cl)c1
0.6% | COc1ccc(N(CC(=O)NCc2ccco2)S(=O)(=O)c2ccc(C)cc2)cc1
32.0% | COc1ccccc1-c1cc(-c2ccccc2)nc(=O)[nH]1

Individual results from the list:
CCc1ccccc1NC(=O)C1CCN(C(=O)c2ccc([N+](=O)[O-])cc2)CC1 | VDR inh: -10.6%
Cc1[nH]c2ccccc2c1C(=O)CSc1ccc(F)cc1 | VDR inh: -5.2%
O=C(NCc1ccc(-c2csnn2)cc1)c1cc(Cl)cc(Cl)c1 | VDR inh: 7.3%
O=C(Nc1ccccc1C(=O)N1CCCC1)c1ncoc1-c1cccc(Cl)c1 | VDR inh: -3.1%
Cn1c(C(=O)NCCN2CCc3ccccc3C2)cc2c(=O)n(C)c3ccccc3c21 | VDR inh: 0.5%
COc1ccc(Cl)cc1N(C(=O)c1ccco1)C(C(=O)NC1CCCC1)c1ccncc1 (configuration not stated) | VDR inh: 6.1%

New compounds follow:
VDR inh | molecule
-2.1% | CCOc1ccccc1N(CC(=O)O)S(=O)(=O)c1ccc(C)cc1
-6.2% | CCn1nc(C(=O)NCC(c2cccs2)N2CCOCC2)c2ccccc2c1=O (configuration not stated)
9.1% | CCCCc1[nH]nc2c1C1(C(=O)N(CC)c3ccccc31)C(C#N)=C(N)O2 (configuration not stated)
3.8% | O=C(NCc1ccc(F)cc1)c1cc2c(=O)n3ccccc3nc2s1
8.4% | N/C(=N\OC(=O)C1CC1)c1ccc([N+](=O)[O-])s1
1.0% | CC(=O)Nc1ccc(N2CCCCC2)cc1
-10.2% | COC(=O)c1ccc(S(=O)(=O)N2CCCN(Cc3cccc(Br)c3F)CC2)n1C
8.4% | O=S(=O)(NCC1NCCc2ccccc21)c1ccccc1 (configuration not stated)
-4.2% | Cc1nnc(SCC(=O)Nc2cc(S(=O)(=O)N3CCOCC3)ccc2N2CCCC2)s1
14.4% | COCCCN(C(=O)CCSc1ccc(F)cc1)c1c(N)n(Cc2ccccc2)c(=O)[nH]c1=O
89.1µM* | CC(=O)Nc1nc(C)c(-c2csc(Nc3ccc(O)cc3)n2)s1
6.4% | CCc1ccc(-c2[nH]nc3nc(-c4ccc(OC)cc4)cc(C(=O)NCCc4ccc(OC)c(OC)c4)c23)cc1
-3.6% | C=CCn1c(Cc2nc3ccc(Cl)cc3[nH]2)n[nH]c1=S
2.3% | CC(C)(C)C(=O)N1CCN(c2ccc([N+](=O)[O-])cc2-n2cccc2)CC1
-22.3% | CSc1nc(-c2ccco2)nn1C(=O)Cc1ccccc1
12.2% | CN1CC(=O)N/C1=N\C(=O)Nc1ccc(O)cc1
-9.1% | CCOc1ccc(S(=O)(=O)Nc2cc(Cl)ccc2O)cc1
-2.3% | CCc1ccc(-n2c(=O)c3c4c(sc3n(CC(=O)NCCCOC)c2=O)CCC4)cc1
-5.4% | N#CCC(=O)Nc1ccc(C(=O)NCC(c2ccco2)N2CCCCC2)cc1 (configuration not stated)
7.8% | Cc1noc(C)c1-c1ccc2ncnc(NCc3cccs3)c2c1
21.6% | COc1ccc(N2CCN(C(=O)CC(NC(N)=O)c3cccc(Oc4ccccc4)c3)CC2)cc1 (configuration not stated)
32.6%[activator] | COc1cc(C2C(C#N)=C(N)N(N(C)C)C3=C2C(=O)CCC3)ccc1O (configuration not stated)
12.9% | CCOC(=O)c1c(NC(=O)COC(=O)c2cc(OC)c(OC)cc2[N+](=O)[O-])sc(C)c1C
0.4% | Cc1cc(C)cc(NC(=O)CSc2oc(-c3ccccc3)nc2S(=O)(=O)c2ccccc2)c1
5.5% | Cc1ccc(C)c(NC(=O)CCN2C(=O)c3ccccc3C2=O)c1
-4.3% | S=c1[nH]nc(/C=C/c2ccccc2)o1
-16.9% | COc1cccc(CSc2nc3sc(C)c(C)c3c(=O)n2Cc2ccco2)c1
-9.2% | O=C(Oc1cccc2ccccc12)c1cc(Cl)nc2ccccc12
-7.6% | C=CCn1c(SCC(=O)Nc2cccc(S(N)(=O)=O)c2)nc2sc(C)c(C)c2c1=O
7.9% | Cc1cc(C)n2nc(CC#N)c(C#N)c2n1
-13.0% | O=C(NN1CCOCC1)c1ccc(Br)cc1
7.5% | CCOc1ccc(C(C)=O)cc1Cn1c(=O)oc2ccccc21
-10.2% | Cn1nccc1C(=O)N1CCN(c2ncccn2)CC1
8.3% | COc1ccc(C(CNC(=O)COc2ccccc2)N2CCCCC2)cc1 (configuration not stated)
-6.1% | CCOC(=O)CC(=O)CSc1nnc2sc3ccccc3n12
? | S=C(NCCN1CCOCC1)Nc1ccc(-c2nc3ccccc3[nH]2)cc1
5.6% | COc1ccc(Cl)cc1NC(=O)CN(C)C(=O)CCCc1c[nH]c2ccccc12
-14.1% | Cc1ccc(N(C)S(=O)(=O)c2cc(-c3cnc(C4CC4)o3)ccc2C)cc1
2.3% | CCC1=Nc2cc(C(=O)NCc3ccc(C)cc3)ccc2Sc2ccc(C)cc21
-12.7% | N#Cc1cccc(NC(=O)CCN2C(=O)C3CCCCC3C2=O)c1 (configuration not stated)
-5.9% | CCOc1ccc(NS(=O)(=O)CC23CCC(CC2=O)C3(C)C)cc1 (configuration not stated)
-7.0% | CCOC(=O)C[C@H]1c2ccc(C(F)(F)F)cc2S(=O)(=O)N1C(C)C
-16.8% | Brc1ccc(-c2ccc(/C=N/Nc3nc(N4CCOCC4)nc(N4CCOCC4)n3)o2)cc1
-5.1% | Cc1ccccc1-c1n[nH]c(=S)o1
-8.3% | Cc1ccc(NS(=O)(=O)c2ccc3c(c2)NC(=O)CO3)cc1Cl

From PubChem BioAssay

Only part of the results is shown, so the mix of outcomes need not match the whole.
